Screening data deposited in PubChem by National Center for Advancing Translational Sciences (NCATS).
D2 ag – Beta-Arrestin HTS for Positive Allosteric Modulators of the Human D2 Dopamine Receptor: Agonists; D(2) dopamine receptor (Homo sapiens), P14416; DiscoveRx PathHunter D2 beta-arrestin, luminescence, 90 min; 100% = 57 uM dopamine signal; activation, % (no concentration beside the values); 360,000 compounds, 0.084% hits; in the data active = activation above about 40%; inconclusive = about 15% to 40%; inactive = below about 15%; also: compound concentration not given in the record; the text of the record calls up to 30% inactive
Target sequence (P14416 whole entry, looked up): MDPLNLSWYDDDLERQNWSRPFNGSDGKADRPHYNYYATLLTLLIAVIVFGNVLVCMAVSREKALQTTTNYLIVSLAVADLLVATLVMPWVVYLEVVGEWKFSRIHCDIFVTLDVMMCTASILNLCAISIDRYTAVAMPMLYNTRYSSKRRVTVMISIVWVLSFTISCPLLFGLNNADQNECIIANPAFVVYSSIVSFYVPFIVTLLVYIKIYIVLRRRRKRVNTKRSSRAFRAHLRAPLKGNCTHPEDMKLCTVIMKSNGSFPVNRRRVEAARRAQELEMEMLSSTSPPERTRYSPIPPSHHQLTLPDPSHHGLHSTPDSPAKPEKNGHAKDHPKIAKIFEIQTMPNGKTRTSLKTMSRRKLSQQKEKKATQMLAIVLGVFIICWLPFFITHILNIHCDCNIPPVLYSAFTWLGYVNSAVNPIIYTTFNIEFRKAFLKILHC
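DiscoveRx PathHunter D2 beta-arrestin cells (2,100/well) attached overnight, then compound-stimulated 90 min at 37 C in HBSS/10 mM HEPES/0.1% Tween-20 buffer; beta-galactosidase complementation read by luminescence after 1 h at ambient temperature. Dopamine 57 uM final (EC100) as control.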
gsp antagonist – qHTS for Antagonists of gsp, the Etiologic Mutation Responsible for Fibrous Dysplasia/McCune-Albright Syndrome: qHTS | 340,000 compounds, 0.4% hits | gsp-mutant cells, cAMP HTRF, 30 min; control for the full effect not named in the record | Potency, µM (series often up to 76.9 µM), without a hit: at the top dose activity change, negative = inhibition, usual class: inhibitors | AID 624288, 2012; active = falling curve of any shape with a large fitted effect; inconclusive = falling curve, mostly with a smaller effect; inactive = flat or rising curve; cell line not stated here;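 also: intracellular cAMP measured with PDE inhibitor Ro 20-1724 present during compound exposure; potency is read from the fitted curve at half-maximal effect; % is scaled to controls: 0 for no effect and ±100 for the full control effect; nearly all actives have a fitted effect of over 65% in size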
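HTRF cAMP read-out (cAMP-d2 plus anti-cAMP antibody-K in lysis buffer, 30 min RT). Before lysis, cells are exposed to compounds with […] for 30 min at 37C in DPBS containing Ca/Mg, BSA and Tween 20.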
Sfp inh – qHTS Assay for Inhibitors of Bacillus subtilis Sfp phosphopantetheinyl transferase (PPTase); Biochemical Sfp PPTase activity, qHTS; Potency, µM, for inactives: max response, negative = inhibition, most hits filed as inhibitors; 310,000 compounds, 3.5% hits; AID 1490, 2009; active = well fitted inhibition curve with a large enough effect; inconclusive = small, poorly fitted or top-dose-only effect, or another doubt; inactive = no such curve, though single readings can be large or run the other way;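 also: the enzyme is Sfp with the accession as filed and its product quenches rhodamine fluorescence; potency is read from the fitted curve at half-maximal effect; 0% = enzyme reaction without inhibitor and -100% = no enzyme wells; top concentration of the series not given in the record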
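Sfp 15 nM + cpd, 15 min RT; start w/ rhodamine-CoA 5 uM, BHQ-2-YbbR 12.5 uM (final); 50 mM Hepes pH 7.6, 10 mM MgCl2, 0.01% NP-40, 0.01% BSA; read 525/598 nm at 0 and 30 min.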
Menin MLL FP FL – qHTS Assay for Inhibitors Targeting the Menin-MLL Interaction in MLL Related Leukemias: Competition With Fluorescein Labeled MLL-derived Peptide; 290,000 tested, under 10 active; Fluorescence polarization, fluorescein-MLL peptide displacement from menin; FP activity change, % at 61.4 µM; inconclusive = falling polarisation curve, or a change in total fluorescence; inactive = total fluorescence flat and polarisation flat or rising; no compound was filed as active; the % refers to the polarisation; negative = inhibition;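 also: % of control where 0% means no effect; inhibitors lower the polarisation; unlabelled MLL peptide was the positive control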
ClpP mod – qHTS Assay for Activators of ClpP; ATP-dependent Clp protease proteolytic subunit (Bacillus subtilis (strain 168)), P80244; purified B. subtilis ClpP, FRET peptide cleavage, 20 min; Potency, µM (titrated, usually from 57.5 µM), for the others: at the highest dose activity change, negative = active; 340,000 compounds, 1.9% hits; AID 651965, 2013; active = well fitted falling curve with a large enough effect; inconclusive = small, poorly fitted or top-dose-only effect; inactive = no such curve, though single readings can be large or run the other way; also: potency is read from the fitted curve at half-maximal effect; the source files actives as falling curves though it sought activators and does not explain the sign; nearly all actives have a fitted effect of over 65% in size; many hits overshoot -100%
Target sequence (P80244 whole entry, looked up): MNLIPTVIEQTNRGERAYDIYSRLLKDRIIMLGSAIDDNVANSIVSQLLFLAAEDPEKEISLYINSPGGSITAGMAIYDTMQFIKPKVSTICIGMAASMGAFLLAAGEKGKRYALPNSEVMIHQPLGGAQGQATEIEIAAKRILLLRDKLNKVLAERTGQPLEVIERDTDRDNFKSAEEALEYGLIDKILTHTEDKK
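Purified B. subtilis ClpP, 10 microg/mL final in Tris/HCl pH8 with KCl, BSA, glycerol and Tween-20, cleaved an Abz/nitrotyrosine-quenched decapeptide. Fluorescence (ex 320, em 430) was read at 0 and 20 min at room temperature. Delta was normalized to 5.8 microM ADEP and DMSO/no-enzyme controls.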
PINK1 expr mod – A Quantitative High throughput Screen to Identify Chemical Modulators of PINK1 Expression; PINK1 immunofluorescence, high-content cytometry, 24 h; 410,000 compounds, 0.2% hits; Potency, µM (doses to about 76.6 µM), for inactives: top-dose activation (PINK1 increase), most hits filed as activators; active = well fitted activation curve with a large enough effect; inconclusive = small, poorly fitted or top-dose-only effect; inactive = flat fitted curve, though single readings scatter; cell line not stated here;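 also: potency is read from the fitted curve at half-maximal effect; % of control where 0% means no effect; nearly all actives have a fitted effect of over 65% in size; a mitochondrial uncoupler was the plate control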
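Decision-based qHTS: stable cells, 24 h exposure to five compound concentrations, CCCP as control. Fixed cells stained for PINK1 plus nuclear, mitochondrial and cell markers, cytometer read.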
gsp ag – qHTS for Agonist of gsp, the Etiologic Mutation Responsible for Fibrous Dysplasia/McCune-Albright Syndrome: qHTS; AID 624287, 2012; gsp mutant cells, cAMP HTRF, 30 min; control for the full effect not named in the record; Potency, µM (highest dose often 76.9 µM), for inactives: top-dose activation (cAMP increase), most hits filed as activators; 340,000 compounds, 0.13% hits; active = well fitted activation curve with a large enough effect; inconclusive = small, poorly fitted or top-dose-only effect, or another doubt; inactive = no such curve, though single readings can be large or run the other way; cell line not stated here;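 also: phosphodiesterase inhibitor Ro 20-1724 added with compounds to block cAMP breakdown; potency is read from the fitted curve at half-maximal effect; nearly all actives have a fitted effect of over 60% in size; about a fifth of the inactives were tested at one dose only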
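Cells stably selected in G418 were plated at 2000/well, grown 16-24 hr, then given compounds in DMSO with the PDE inhibitor […] (300 uM solution added) for 30 min at 37C; cAMP was read by HTRF.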
Active calls of the source: *; ? = inconclusive; . = not tested or not shown; & = joins results of further samples; [ ] = remark or other dose. The order is random; overall some 5.1% were active at least once.

| no. | molecule | D2 ag | gsp antagonist | Sfp inh | Menin MLL FP FL | ClpP mod | PINK1 expr mod | gsp ag |
| --- | --- | --- | --- | --- | --- | --- | --- | --- |
| 1 | N#C/C(=C\c1ccc2c(c1)OCCO2)C(=O)NC1CCCCC1 | -4.5 | 7.4% | 12.8% | 9.3 | -2.0% | 2.5% | 0.7%[15.4 µM] |
| 2 | CC(C)CNC(=S)N(CCCO)Cc1cc2cc3c(cc2[nH]c1=O)OCCO3 | -3.8 | 0.7% | -12.9% | 2.5 | 4.2% | 2.6% | -0.2% |
| 3 | CC(=O)NC(c1cccc(F)c1)c1nc(-c2cc(F)cc(Cl)c2)cs1 (stereo unspecified) | 8.9 | . | . | . | -2.9% | 0.4% | . |
| 4 | COC(=O)c1c(C)oc2ccc(N(C(C)=O)S(=O)(=O)c3ccccc3)cc12 | 4.2 | -13.8% | -1.9% | . | -3.1% | 3.9% | 10.3%[15.4 µM] |
| 5 | O=C(CSc1nncn1-c1ccccc1)Nc1ccc(F)cc1F | -4.3 | 2.8% | 8.3% | -7.3 | . | 6.1% | 7.5%[15.4 µM] |
| 6 | COc1ccc(N(Cc2ccco2)C(=O)c2ccccc2F)cc1OC | -1.2 | -2.0% | 8.4% | 0.5 | -1.1% | -0.1% | -5.4% |
| 7 | CCOC(=O)CN1NC2(CCCCCC2)NC1=S | -3.5 | 8.1% | 50.1µM* | 6.6 | 1.4% | 1.1% | -7.7% |
| 8 | COc1ccc(OC)c(S(=O)(=O)Nc2ccc3c(c2)C(=O)OC3)c1 | 1.0 | -7.1% | 13.6% | -0.5 | . | -0.8% | 7.0%[15.4 µM] |
| 9 | Cc1nc(SCC(=O)O)c(C#N)c(-c2ccco2)c1C(=O)N(C)C | -8.6 | 7.9% | -2.0% | -2.7 | -7.0% | -1.0% | 2.0% |
| 10 | COc1cccc(CNC(=O)C2CCN(S(=O)(=O)N3CCC(C)CC3)CC2)c1 | 2.9 | 0.9% | 10.1% | -6.3 | 1.2%&-2.8% | -0.5%&1.8% | -20.9% |
| 11 | Cc1ccc(C(=O)NCc2occc2C(=O)O)o1 | -1.5 | -1.1% | 9.7% | 2.2 | -2.6% | -1.0% | 25.4% |
| 12 | CC1(c2ccccc2)NC(=O)N(CC(=O)NCC2CCCO2)C1=O (stereo unspecified) | 1.2 | 3.8% | . | . | 0.0% | 2.1% | 10.1% |
| 13 | O=C(CC1S/C(=N/N=C/C=C/c2ccccc2)NC1=O)Nc1ccc(Cl)c(Cl)c1 (stereo unspecified) | 0.1 | 5.4% | -14.2% | 2.8 | 0.1% | ? | -16.0% |
| 14 | O=C(N/N=C/c1coc2ccccc2c1=O)c1ccncc1 | -4.1 | -12.5% | 13.9% | 4.3 | 13.6% | -0.7% | 27.9% |
| 15 | CCOc1ccc(NC(N)=O)cc1 | -0.9 | 5.5% | 15.1% | -2.2 | 0.9% | . | 7.5% |
| 16 | COc1ccc(CSC(=N)N)cc1[N+](=O)[O-] | -6.3 | -4.9% | -12.5% | 3.5 | 1.1% | 4.1% | ? |
| 17 | COc1ccc(/C=C2/N=C(SC3CCOC3=O)N(c3cccc(OC)c3)C2=O)cc1 (stereo unspecified) | 0.8 | -12.4% | -8.9% | 23.2 | -6.1% | 1.9% | -37.9%[inhibitor] |
| 18 | Cc1cccnc1Nc1nc(-c2ccc(O)cc2)cs1 | -0.5 | -8.6% | ? | -0.5 | 1.6% | . | -38.1%[inhibitor] |
| 19 | COc1ccc(-c2n[nH]nc2C2=CC(=O)CC(C)(C)C2)cc1 | -8.7 | . | . | . | -0.3% | 4.1% | -3.1% |
| 20 | CCOC(=O)c1c(CC(C)C)csc1/N=C/C1C(=O)CC(C)(C)CC1=O | -4.3 | 2.8% | 0.6% | ? | . | 24.9% | -6.0% |
| 21 | C/C(=N\NC(=O)c1ccccc1-n1cccc1)C1CC1 | 2.1 | 6.7% | 3.7% | 7.2 | ? | -0.9% | ? |
| 22 | Cc1cccc(OCC(=O)O/N=C(\N)c2ccccn2)c1 | -1.2 | -1.8% | 13.1% | 1.8 | 0.4% | 7.3%[38.3 µM] | 12.6% |
| 23 | CSc1nc(=S)n(-c2ccccc2)c(C)c1C(C)=O | -4.0 | -12.7% | 4.2% | 2.5 | -0.2% | -0.5% | -1.3% |
| 24 | Cc1ccccc1-c1nc2cc(Cl)ccc2o1 | -5.1 | -0.7% | -1.2% | -4.7 | ? | 6.3% | ? |
| 25 | COc1ccc(C(=O)NCC(=O)OCC(=O)N2N=C(c3ccc(Cl)cc3)CC2c2ccco2)cc1OC (stereo unspecified) | -1.0 | -5.1% | 8.4% | 5.3 | -30.0% | 1.2% | 5.8% |
| 26 | CNC(=S)N(Cc1cccs1)Cc1cc2cc(OC)ccc2[nH]c1=O | 1.8 | -30.5% | -15.7% | 5.7 | ? | 1.3% | -8.4% |
| 27 | CCN(c1cccc(C)c1)S(=O)(=O)c1ccc(OC)c([N+](=O)[O-])c1 | -2.3 | . | 9.1% | -0.2 | . | 2.6% | 3.1%[15.4 µM] |
| 28 | O=C(CSc1nnnn1C1CCCCC1)NCc1ccco1 | -3.0 | 0.9% | 5.7% | -0.6 | -0.1% | 0.0% | 0.9% |
| 29 | CC1=C(C(=O)OC2CCCCC2)C(c2ccc(C)o2)C2=C(CCCC2=O)N1 (stereo unspecified) | -0.8 | -5.1% | -17.8% | -0.4 | ? | 1.9% | -40.9%[inhibitor] |
| 30 | CC1(C)Cc2nc3sc4c(OCc5ccccc5)ncnc4c3cc2CO1 | 0.4 | 8.5% | 15.1% | 2.9 | -20.4% | 4.3% | -17.1% |
| 31 | CC(=O)c1sc(-c2ccc(F)cc2F)nc1C | -3.4 | -9.5% | 16.5% | 0.1 | 1.6% | 1.2% | ? |
| 32 | COc1cc(NC(=O)CSc2nc3c(C)ccc(C)c3cc2C)c(C(=O)O)cc1OC | -1.1 | -25.8% | -11.2% | 3.4 | -2.1% | 2.2% | 13.3% |
| 33 | O=C(NCc1ccccn1)c1ccc(NC(=O)c2ccco2)cc1 | -2.8 | 0.3% | 17.1% | -2.4 | -1.2% | -2.7% | 19.5% |
| 34 | Nc1cccc2[nH]c(=O)c3ccccc3c12 | 8.7 | -20.7% | . | . | 28.2µM* | -3.8% | -10.7% |
| 35 | O=C(CCc1ccccc1)Nc1ncn[nH]1 | -1.3 | 10.0% | -9.9% | -0.7 | -0.6% | 7.3% | 13.5% |
| 36 | CC(=O)c1c(C(C)=O)c(C)n(Cc2ccc(Cl)cc2)c1C | 1.4 | ? | 5.7% | ? | 0.7% | 1.1% | -29.0% |
| 37 | COc1ccc(S(=O)(=O)N2CCN(Cc3ccccc3)CC2)cc1 | -2.6 | -6.7% | -0.6% | 2.6 | -3.3% | 0.1%[38.3 µM] | -1.3% |
| 38 | CCN(CC)CCNCc1ccc(-c2ccc(Cl)cc2)o1 | 0.7 | 12.0% | -2.1% | -1.0 | -5.8% | . | 23.9% |
| 39 | O=C(NCCc1ccc(F)cc1)c1ccc([N+](=O)[O-])cc1 | 0.7 | 2.1% | 7.8% | 3.3 | -6.2% | 0.0% | -7.6%[15.4 µM] |
| 40 | O=C(N[C@@H]1C/C=C\C[C@H](CC(=O)N(CCO)Cc2ccccc2)C(=O)NC[C@@H](c2ccccc2)OC1=O)OCC1c2ccccc2-c2ccccc21 | -1.6 | ? | . | . | 2.1% | 3.0% | . |
| 41 | CCOc1cc(/C=C2/C(=O)ON=C2C)ccc1OCc1ccccc1 | 0.3 | -2.4% | -22.3% | 0.5 | . | 0.2% | 17.8% |
| 42 | CCc1nc2ccc(C(=O)Nc3cccc(OCC(=O)N(C)C)c3)cn2c1N(C)Cc1ccc(N(C)C)cc1 | ? | . | . | . | -0.2% | -0.5% | . |
| 43 | CCOC(=O)C1(CCCc2ccccc2)CCN(CCCn2cccn2)CC1 | -0.3 | 10.4% | -3.3% | 0.5 | 0.8% | -1.5% | -79.9%[inhibitor] |
| 44 | Cc1cc(NC(=O)c2ccc(S(=O)(=O)N3CCCC3)cc2)nc2c1c(=O)oc1ccccc12 | -2.7 | -1.2% | 1.4% | 12.6 | ? | 2.7% | -26.1% |
| 45 | CN1CCN(NC(=O)CN2C(=O)/C(=C/c3ccccc3Cl)SC2=S)CC1 | 0.7 | -2.2% | ? | 9.7 | -1.6% | 0.0%[38.3 µM] | -13.9% |
| 46 | O=C1CCC/C1=C/Nc1ccc(Cl)cc1 | -3.8 | -5.8% | 11.7% | -0.1 | -6.5% | 5.2% | -0.1% |
| 47 | CCOc1ccc2c(c1)C(C)=CC(C)(C)N2S(=O)(=O)c1ccc(F)cc1 | -5.1 | 21.3% | 0.7% | 1.2 | 0.9% | 2.3% | -10.8% |
| 48 | CCc1cc2cc(C(=O)N3CCN(Cc4ccccc4)CC3)sc2s1 | 0.2 | -25.8% | ? | 1.3 | -3.7% | 15.8% | -4.8% |
| 49 | Cc1cccc(CSC2=NCCN2C(=O)c2ccco2)c1 | -8.0 | -16.0% | -6.4% | -1.8 | 2.2% | 1.6% | ? |
| 50 | O=C(NCc1ccco1)Nc1cccc(-c2ccccc2)c1 | 0.3 | 4.3% | . | . | . | 1.4% | 11.5% |
| 51 | COc1ccc(OC)c(NC(=O)CN2C(=O)NC3(CCCc4ccccc43)C2=O)c1 (stereo unspecified) | -4.2 | -8.1% | . | . | -1.0% | 0.4% | 4.3% |
| 52 | Cc1ccc(NCc2nnc(SCC#N)o2)c(C)c1 | -3.7 | -0.7% | 9.6% | 1.6 | 0.1% | . | -5.2% |
